Screening results (PubChem)
VACV E9 pol inh: vaccinia E9 polymerase processive synthesis inhibitors, primary screen, biochemical, absorbance | Vaccinia virus DNA polymerase (E9) processive complex | in vitro processive DNA synthesis, absorbance read-out; stronger effect = lower value; some inactives read as strong as hits | normalized absorbance, % (concentration not given with the values) | hit rate 0.94% among 46,000;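 active means replicate mean up to 90% and picked by the depositor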;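 further: 100% = median of the test wells of a plate; 100 nL library stock went into each well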
The depositor's hits bear a star. Some of the compounds tested. The share of hits here may be higher or lower than overall.

SMILES | VACV E9 pol inh
Cc1cc(C)c(C(=O)NCc2ccco2)c(C)c1C(=O)NCc1ccco1 | 124
COc1ccc(OCC(=O)N2CCC(Cc3ccccc3)CC2)cc1 | 100
COc1nccc(N)n1 | 103
c1ccc(-c2csc3nc4ccccc4n23)cc1 | 86
CCC(NS(=O)(=O)c1cc(C)ccc1OC)C12CC3CC(CC(C3)C1)C2 (stereo unspecified) | 95
CSc1sc(C)cc1/C=N/O | 100
COc1ccc(CC(=O)n2nc(C)cc2C)cc1 | 104
Cc1cc(/C=C2\C(=O)NC(=S)N(C)C2=O)c(C)n1-c1ccc(C(=O)O)cc1 | 100
CCc1ccccc1NC(=O)CC1CS(=O)(=O)CC1CC(=O)Nc1ccccc1CC (stereo unspecified) | 100
FC(F)(F)Oc1ccc(N=Cc2ccsc2)cc1 | 107
CC1=C(C(=O)Nc2ccccc2)C(c2ccccc2)n2ncc(C(=O)Nc3ccccc3)c2N1 (stereo unspecified) | 110
Cc1ccccc1NC1=NCCS1 | 108
CCn1c(CCl)nc2cc(C(=O)O)ccc21 | 102
CCOc1ccc(-c2csc(NC(=O)Cc3ccccc3)n2)cc1 | 112
CN(C)CCSc1nc2ccccc2c(=O)n1-c1ccccc1 | 100
C=CCc1cccc(C=NC2=C(C#N)CCC2)c1O | 98
Cc1cc(NCCCN2CCOCC2)n2c(nc3ccccc32)c1C#N | 102
CCOC(=O)c1c(-c2cccc(N)c2)cn2ccccc12 | 94
CC1=C(C(=O)N2CCCCC2)C(c2ccc(Br)cc2)n2c(nc3ccccc32)N1 (stereo unspecified) | 98
Cc1ccc(NC(=O)c2snc3ccc(Cl)cc23)cc1C | 97
O=C1Nc2cc(C(=O)NC3CC3)ccc2S/C1=C\c1ccccc1 | 104
CC(Oc1ccccc1)C(=O)NC1C(=O)N2C(C(=O)O)C(C)(C)S[C@H]12 (stereo partly specified) | 100
COc1ccc(OC)c(-c2noc(NCCc3ccc(Cl)cc3)n2)c1 | 90
CC1C(=O)ON(c2ccccc2)C(=O)N1C (stereo unspecified) | 99
Cc1[nH]c2ccccc2c1C(=O)CC#N | 95
Cc1nonc1NC(=O)c1cccs1 | 100
Cc1ccc(C)c(NC(=O)CSc2ncnc3sc(C)c(C)c23)c1 | 100
O=S(=O)(Cc1cccc(C(F)(F)F)c1)N1CCOCC1 | 102
O=C(O)c1ccccc1C(=O)NC1CCN(c2nccc(C(F)(F)F)n2)CC1 | 102
O=C(COC(=O)c1ccc(Br)o1)NCC1CCCCC1 | 96
O=C1CC(c2ccccc2)CC(O)=C1C=NCc1ccccc1 (stereo unspecified) | 108
Cc1ccc(CNc2nc3c(c(=O)[nH]c(=O)n3C)n2Cc2ccccc2C)cc1 | 99
COc1cc2ccccc2cc1C(=O)Nc1ccc2c(c1)OCCO2 | 100
CNc1nc(-c2ccccc2)cc(-c2ccccc2)n1 | 103
O=C1CS(=O)(=O)CN1c1ccc(Cl)c(Cl)c1 | 86
O=S(=O)(Nc1ccccc1C(F)(F)F)c1ccc2c(c1)CCO2 | 100
N#Cc1c(C(F)(F)F)cc(-c2cccs2)oc1=S | 100
CCOc1ccc2nc(NC(=O)c3cccn(OCc4ccccc4)c3=O)sc2c1 | 100
C=Cc1ccc2c(c1)N(C)C(=C)S2 | 105
O=C(NC1(C(F)(F)F)Oc2ccccc2O1)Sc1ccccc1 | 94
CCCc1c(C)c2ccc(OCC(=O)OC)cc2oc1=O | 100
CCCCN(C)S(=O)(=O)c1ccc(C)c(-c2nnc3c4ccccc4c(C)nn23)c1 | 100
Clc1ccc(-c2nc(N3CCCCC3)c3ccccc3n2)cc1 | 100
COc1ccc(-c2nn(-c3ccccc3)cc2/C=C\C(N)=O)cc1 | 100
Cn1c2c(c(=O)n(C)c1=O)C(=O)CN2c1ccccc1 | 101
NCCc1ccc(O)cc1 | 100
Cc1nn(-c2ccccc2)nc1C(=O)N(C)c1nnc(C(F)(F)F)s1 | 102
CCOC(=O)NC(=S)c1ccc[nH]1 | 101
CCn1c(=O)c2cc(C(=O)N(Cc3ccccc3)C(C)C)sc2c2ccccc21 | 100
CCC(C)NS(=O)(=O)c1cccs1 (stereo unspecified) | 99

Part of the list above, in markdown.
| Molecule | VACV E9 pol inh |
| --- | --- |
| Cn1c2c(c(=O)n(C)c1=O)C(=O)CN2c1ccccc1 | 101 |
| NCCc1ccc(O)cc1 | 100 |
| Cc1nn(-c2ccccc2)nc1C(=O)N(C)c1nnc(C(F)(F)F)s1 | 102 |
| CCOC(=O)NC(=S)c1ccc[nH]1 | 101 |

Later entries.
SMILES | VACV E9 pol inh
CCN1CN=C(Nc2nc(C)c3cc(C)ccc3n2)NC1 | 49*
O=C(O)c1cc(/C=N/n2cnnc2)c2c(c1)COCO2 | 100
CCN(CC)C(=O)C1CCN(Cc2ccc(Br)cc2)CC1 | 99
O=C(COc1ccc(C2Nc3cccc4cccc(c34)N2)cc1)Nc1ccccc1 | 100
Cc1ccccc1-c1nnc2n1C(C)(C)Cc1ccccc1-2 | 98
CCC(C)(C)C(=O)Nc1cc(C)cc(C)c1 | 99
O=C(COC(=O)Cc1ccc(Cl)cc1Cl)NC1CC1 | 109
Cc1cc(NC(=O)CCOc2ccccc2)no1 | 101
Cc1ccc2nc(-c3cccc(NC(=O)C4CCCCC4)c3)oc2c1 | 100
CCOc1ccccc1CNc1ncnc2c1nc1n2CCCCC1 | 101
CN1CCN(c2nc(NCC3CCCO3)c3ccccc3n2)CC1 (stereo unspecified) | 99
CCOC(=O)c1cc(C)n(CC2CCC(C(=O)NCc3ccccc3)CC2)c1C (stereo unspecified) | 114
C/C(=C/C(=O)O)C(=O)Nc1sc2c(c1C#N)CCCC2 | 101
COC(=O)c1ccc2c(c1)NC(=O)CO2 | 96
CCN1C(=O)c2ccccc2Sc2ccc(NC(=O)N3CCc4ccccc43)cc21 | 95
CC(C)CC(Nc1ncnc2sc3c(c12)CCC3)C(=O)O (stereo unspecified) | 100
CC(C)NC(=O)c1cc2c(s1)-c1ccccc1SC2 | 94
COc1ccc2c(c1)c(C(=O)N1CCN(C)CC1)c(C)n2-c1ccccc1 | 100
O=C(CCC1CCCCC1)NC1=NCCS1 | 101
Clc1ccc(C2=NCCc3sccc32)cc1 | 101
Cc1oc2ccccc2c1-c1ccc2ccccc2n1 | 98
Cc1cccc(NCc2cn3ccccc3n2)c1 | 99
N#Cc1c(-c2ccccc2Cl)c(C#N)c2nc3ccccc3n2c1N | 100
c1ccc(-c2nc(N3CCCCCC3)c3ccccc3n2)cc1 | 100
O=C(Cn1c(=O)c(C(F)(F)F)nc2ccccc21)N1CCc2ccccc21 | 98
CC(C)(C)S(=O)(=O)/C(C#N)=C/c1cc(C(F)(F)F)cc(C(F)(F)F)c1 | 101
O=C(Nc1ccccc1C(=O)Nc1ccccc1)c1ccc(Cl)cc1 | 100
COc1cc(O)oc1C=Nc1ccc(C(F)(F)F)cc1 | 105
O=c1[nH]c2ccccc2nc1/C=C(\O)c1ccc(C2CCCCC2)cc1 | 94
CCOC(=O)C1CNC(=S)NC1(C)O (stereo unspecified) | 99
CCN1C(=O)/C(=C\c2ccc(N(CC)CC)cc2)SC1=S | 95
CCN(C(=O)CSc1nc2ccccc2s1)C1CCCCC1 | 90
O=C(Cc1cccc2ccccc12)N1CCN(c2cccc(C(F)(F)F)c2)CC1 | 96
N#C/C(=C(/O)CCl)c1ccccn1 | 100
c1cc(-c2nn[nH]n2)ccc1CN1CCCCC1 | 95
CCC(C)(C)C(=O)N1CCC(C(=O)OC)CC1 | 101
Cc1ccc(NC(=O)CSc2nc3c(c(=O)n2CCc2ccccc2)SCC3)cc1Cl | 97
CCOc1ccc(C(=O)N2CCC(C(N)=O)CC2)cc1 | 103
N#Cc1nn(-c2c(Cl)cc(C(F)(F)F)cc2Cl)c(N)c1S(=O)C(F)(F)F (stereo unspecified) | 100
O=C(O)c1cccnc1SCCC(F)=C(F)F | 98
C/C=C/C(=O)c1cc(Cl)ccc1O | 99
O=C(CN1C(=O)/C(=C\c2cccc(F)c2)Oc2ccccc21)N1CCN(c2ncccn2)CC1 | 102
Oc1ccc(CC2CC3CCN2CC3)cc1 (stereo unspecified) | 106
O=S(=O)(c1ccc(F)cc1)N1CCCc2cccc(O)c21 | 90
Cc1ccc(S(=O)(=O)N2N=C(c3ccccc3)CC2c2ccc(Cl)cc2)cc1 (stereo unspecified) | 100
CSc1cccc(NC(=O)c2cc3c(ccc4ccccc43)o2)c1 | 100
CC(=O)N1CCC(C(=O)Nc2nc3ccc(Cl)cc3s2)CC1 | 102
N#Cc1cc2c(nc1SCc1ccccc1)CCC2 | 100
Cc1ccc(C(CC(=O)O)c2ccco2)cc1 (stereo unspecified) | 100
COc1ccc2nc3oc(C(=O)NC4CC4)cc3cc2c1 | 93

Shown field by field: 4 of the compounds above
CC(=O)N1CCC(C(=O)Nc2nc3ccc(Cl)cc3s2)CC1
  VACV E9 pol inh: 102

C/C=C/C(=O)c1cc(Cl)ccc1O
  VACV E9 pol inh: 99

Oc1ccc(CC2CC3CCN2CC3)cc1 (stereo unspecified)
  VACV E9 pol inh: 106

O=C(CN1C(=O)/C(=C\c2cccc(F)c2)Oc2ccccc21)N1CCN(c2ncccn2)CC1
  VACV E9 pol inh: 102

(cont.)
SMILES | VACV E9 pol inh
O=C(c1ccccc1)c1ccc(-c2ccccc2)cc1 | 108
CC(C)n1cnc2c(NCc3ccccc3)nc(NCCO)nc21 | 100
CCOC(=O)C1C(=O)C=C(c2ccco2)CC1c1cccs1 (stereo unspecified) | 98
Cc1ccc(/C=C2\CCCC3=C2Nc2nnnn2C3c2ccc(C)cc2)cc1 (stereo unspecified) | 102
Cc1ccc(-n2cc(-c3ccccc3)c3c(N4CCCC4)ncnc32)cc1 | 88
CC(C)c1ccccc1NC(=O)COc1ccccc1F | 107
CCOC(=O)c1[nH]c(C(=O)O)c(CC)c1C | 100
CN1C(=O)/C(=C(\C#N)C(=O)Nc2cc(Cl)ccc2Cl)c2ccccc21 | 102
Cc1ccsc1CNC(=O)Nc1ccc(C(F)(F)F)cc1 | 90
Cc1ccc(C2CC(=O)C3=C(C2)Nc2ccccc2NC3c2cccnc2)cc1 (stereo unspecified) | 103
CSc1nnc2c(n1)OC(C1CC=C(C)CC1)Nc1ccccc1-2 (stereo unspecified) | 100
CN(c1ccccc1)S(=O)(=O)c1ccc(Cl)cc1 | 101
CCOC(=O)C1CCN(C(=O)c2ccc(CNS(=O)(=O)c3ccc(C)cc3)cc2)CC1 | 88
Cc1ccc(NC(=O)Cc2cccs2)cc1C | 94
COc1ccc(/C=N/C2=NNC(=O)CS2)cc1 | 100
CCCc1ccc(OCC(O)CN2CCCCC2)cc1 (stereo unspecified) | 100
C/C(=N\O)C(C)(C)Nc1ccc(C(C)(C)C)cc1 | 95
O=c1oc2ccccc2c(N2CCN(c3ccccc3)CC2)c1CN1CCCC1 | 101
COC(=O)Cn1c(=O)oc2ccc(Cl)cc21 | 100
O=C(O)c1cccc(N2C(=O)c3ccc(C(=O)O)cc3C2=O)c1 | 100
Cc1ccc(C(=O)c2cccc(N)c2)cc1C | 94
O=C(CSc1ccc(-c2ccncc2)nn1)N1CCCCC1 | 105
O=C(CC(=O)N1CCc2ccccc2C1)N1CCc2ccccc2C1 | 89
Cc1onc(-c2ccccc2)c1C(=O)NC(=S)Nc1ccc(Cl)cc1 | 103
NC(=O)C1CCN(Cc2ccc(Cl)cc2)CC1 | 100
NC(=O)c1sc(=S)n(-c2ccccc2)c1N | 100
CCN(CC)CCOc1ccccc1 | 97
O=C(COc1ccccc1C(=O)O)NCCN1CCOCC1 | 100
N#Cc1c(-c2cccs2)cc(-c2ccc(C(=O)O)cc2)nc1SCc1cccs1 | 100
CCn1cc(SC(=N)N)c2ccccc21 | 112
N#CC1=C(N)Oc2nc[nH]c(=O)c2C1c1ccncc1 (stereo unspecified) | 97
Cn1c(-c2ccccc2)cn2cc(-c3ccccc3)nc12 | 94
Cc1ccc(SCCC(=O)NCCc2ccc(F)cc2)cc1 | 100
CNC(=O)Oc1ccc2c(c1)[C@]1(C)CCN(C)[C@@H]1N2C | 98
CCOC(=O)CSc1nc2c([nH]c3ccccc32)c(=O)n1-c1ccc(C)cc1 | 100
COC(=O)Cn1c(=NC(=O)/C=C/c2cccs2)sc2cc(Br)ccc21 | 118
O=C1/C(=C/c2cccs2)SC(=S)N1c1cccc(C(F)(F)F)c1 | 100
CC1=CCC2COC(c3ccccc3)C1C2 (stereo unspecified) | 103
CCCCN1CNC(=S)NC1 | 100
COc1ccccc1-c1nn(-c2cccc(C(F)(F)F)n2)c(=O)o1 | 108

Quoted at random: 6 compounds from above
SMILES | VACV E9 pol inh
CC(C)c1ccccc1NC(=O)COc1ccccc1F | 107
Clc1ccc(-c2nc(N3CCCCC3)c3ccccc3n2)cc1 | 100
FC(F)(F)Oc1ccc(N=Cc2ccsc2)cc1 | 107
CCOc1ccc(C(=O)N2CCC(C(N)=O)CC2)cc1 | 103
CC1=C(C(=O)Nc2ccccc2)C(c2ccccc2)n2ncc(C(=O)Nc3ccccc3)c2N1 (stereo unspecified) | 110
CC1=CCC2COC(c3ccccc3)C1C2 (stereo unspecified) | 103

(list continues)
SMILES | VACV E9 pol inh
O=C(Nc1nc(-c2ccncc2)cs1)C1CCCCC1 | 101
Cc1cccc(Cl)c1NC(=O)Nc1ccc(N2CCCCC2)cc1 | 114
CC1C(=O)OC(c2ccc(Br)cc2)C(C)(C)C1=O (stereo unspecified) | 99
COc1cc(N=Cc2cc3cccc(C)c3nc2Cl)c(OC)cc1Cl | 101
CSc1nnc(CSc2ncccn2)n1-c1cccc(C(F)(F)F)c1 | 99
COc1ccccc1C1c2cc3c(cc2OC(C)(O)C1C)OCO3 (stereo unspecified) | 100
O=C(Nc1ccc2ccccc2c1)/C(=C/c1ccco1)c1ccccc1 | 93
O=C(COC(=O)c1ccc(Br)cn1)c1ccccc1 | 105
Cc1cc(-c2ccco2)n(CC(=O)O)n1 | 103
CN1CCN(CC(O)COc2ccc3ccccc3c2)CC1 (stereo unspecified) | 100
